Compound activity (PubChem BioAssay)
E coli growth – E. coli growth inhibition, primary screen, OD600. actives 0.21% (n = 330,000). AID 1053175, 2014. OD600 absorbance (concentration not given with the values). Escherichia coli growth, 23 h; stronger effect = lower value;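 active = OD600 absorbance below the run mean of sample wells minus 3.6 SD, in any replicate, cut at about 0.56 in these data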;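 note: stock transfer was 300 nL into about 60 µL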
AF4-AF9 inh – inhibitors of AF4 peptide binding to AF9, primary screen, biochemical, AlphaScreen, biotin-AF4 peptide, FLAG-AF9, single point; inhibition, % at 10 µM; Protein AF-9 (Homo sapiens), P42568; actives 0.47% (n = 350,000);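 active = every replicate reaching a set inhibition limit, whatever the replicate mean, cut at about 25% in these data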;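 note: 0% = plate neutral control median and 100% = total signal loss; the record names both 10 and 1 µM as test concentration; the first replicate is given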
Target sequence (P42568 whole entry, looked up): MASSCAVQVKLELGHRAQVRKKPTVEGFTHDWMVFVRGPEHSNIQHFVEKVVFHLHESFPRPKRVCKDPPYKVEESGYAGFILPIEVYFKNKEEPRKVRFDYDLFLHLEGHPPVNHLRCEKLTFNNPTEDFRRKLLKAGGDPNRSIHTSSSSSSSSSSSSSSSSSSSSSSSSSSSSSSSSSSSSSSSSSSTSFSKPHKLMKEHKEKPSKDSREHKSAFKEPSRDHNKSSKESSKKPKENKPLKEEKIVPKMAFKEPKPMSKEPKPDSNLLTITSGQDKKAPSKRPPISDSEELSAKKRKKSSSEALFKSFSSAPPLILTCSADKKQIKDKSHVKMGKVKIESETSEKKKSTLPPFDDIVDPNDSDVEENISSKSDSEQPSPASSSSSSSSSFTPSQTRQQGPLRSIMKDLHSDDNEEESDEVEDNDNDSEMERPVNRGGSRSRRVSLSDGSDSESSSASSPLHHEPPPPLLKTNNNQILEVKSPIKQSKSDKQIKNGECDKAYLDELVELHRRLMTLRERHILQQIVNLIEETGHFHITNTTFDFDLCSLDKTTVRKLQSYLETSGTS
rRNA inh HTS – reduced GFP signal of wild-type E. coli, primary screen, bacterial rRNA inhibitor project, GFP/RFP fluorescence, OD600, single point | E. coli WT GFP vs humanized-ribosome RFP mutants, 24 h; stronger effect = lower value; DMSO median 0, no signal -100 | GFP signal change (wild-type ribosome), % (test concentration not listed) | actives 1.6% (n = 350,000) | AID 720706, 2013;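 active = significant combined selectivity score with lowered wild-type GFP, culture density cut under 30%, mutant RFP and density less affected; inactive = any of these conditions unmet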; note: one replicate is shown; some compounds called inactive have numbers as strong as hits
UCH37 DUB inh – inhibitors of human UCH37 deubiquitinase, primary screen, biochemical, Ub-AMC cleavage, fluorescence; purified proteasome/UCH37; Ubiquitin carboxyl-terminal hydrolase isozyme L5 (Homo sapiens), Q9Y5K5; AID 588478, 2011; actives 0.33% (n = 330,000); inhibition, % (test concentration not listed);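 active = mean of two replicates above 20%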;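 note: 0% = compound-free wells with enzyme and 100% = wells lacking proteasome; stock transfer was 100 nL into about 20 µL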
Target sequence (Q9Y5K5 whole entry, looked up): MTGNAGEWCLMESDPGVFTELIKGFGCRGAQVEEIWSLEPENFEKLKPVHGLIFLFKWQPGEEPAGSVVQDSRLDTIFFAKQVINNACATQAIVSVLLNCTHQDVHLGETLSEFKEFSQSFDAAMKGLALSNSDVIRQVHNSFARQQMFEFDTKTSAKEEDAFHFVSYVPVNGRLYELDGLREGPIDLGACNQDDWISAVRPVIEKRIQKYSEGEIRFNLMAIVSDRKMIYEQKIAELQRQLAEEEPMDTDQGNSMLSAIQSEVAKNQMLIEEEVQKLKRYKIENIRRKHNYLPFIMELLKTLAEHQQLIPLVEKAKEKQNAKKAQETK
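System: Proteasome-associated human UCH37 deubiquitinase; Input: 0.15 nM proteasome in added enzyme buffer; Also added: Ub-AMC substrate from 1 µM stock; Incubation: 30 min compound-proteasome preincubation then 25 min substrate reaction, room temperature; Detection: fluorescence, ex 355 nm, em 460 nm; Read-out: % inhibition of Ub-AMC cleavage fluorescence; Benchmarks: no-proteasome and no-compound wells.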
T cruzi inh – inhibitors of intracellular T. cruzi growth, primary screen, luminescence, NIH3T3 host cells. T. cruzi beta-gal in NIH3T3, 90 h. inhibition, % (no concentration beside the values). actives 1.4% (n = 300,000). AID 1885, 2009;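 active = mean inhibition across valid replicates above about 55%, limit read from the data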;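 note: signal also drops with host cell toxicity which is not excluded here; 0% = plate median of DMSO wells and 100% = zero luminescence signal; higher percent means less beta-gal luminescence so fewer parasites; stock transfer was 50 nL into about 50 µL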
FGF22 binding – binders of human FGF22 protein, primary screen, FGF22 synaptogenesis inhibitor project, biophysical, thermal shift, single point; actives 1.5% (n = 340,000); Fibroblast growth factor 22 (Homo sapiens), Q9HCT0; calls only at 9.99 µM; AID 651658, 2012; recombinant FGF22 thermal shift, SYPRO orange fluorescence; percent of sucrose octasulfate shift, DMSO zero;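 active = melting point raised past a set limit in the mean and every replicate; three in four hits are not shown here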
Target sequence (Q9HCT0 whole entry, looked up): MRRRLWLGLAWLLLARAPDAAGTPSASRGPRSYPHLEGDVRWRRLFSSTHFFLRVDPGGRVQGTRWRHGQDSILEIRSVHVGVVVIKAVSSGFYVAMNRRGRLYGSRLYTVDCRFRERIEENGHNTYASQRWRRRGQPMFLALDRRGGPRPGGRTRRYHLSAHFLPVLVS
A1 inh – caspase 3/7 activation in MEF A1-2A-BIM cells, primary screen, A1 inhibitor project, cell-based, luminescence, HTS; Caspase-Glo 3/7 luminescence, 3 h; percent of clofoctol response, vehicle zero; caspase activation, % (test concentration not listed); actives 0.066% (n = 330,000);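 active = over half of replicate activation scores above 10%, or exactly half above 10 with the replicate mean above 10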;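 note: wells of about 30 µL received 50 nL stock; many hits fall short of the cut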
Beta cell apopt – inhibitors of cytokine-induced beta cell apoptosis, primary screen, luminescence; INS-1E cytokine-induced death, ATP luminescence, 48 h; percent of positive-control rescue, neutral wells zero; protection from apoptosis, % (concentration not given with the values); actives 0.8% (n = 300,000); AID 435005, 2010;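 active = all replicates at 75% or more, or half of them and the mean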;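 note: 0% = cytokine-treated negative control wells and 100% = positive control rescue; higher means more ATP so stronger rescue from cytokine killing; wells of about 40 µL received 100 nL stock; the first replicate is given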
rRNA inh HTS OD600 – further read-out of rRNA inh HTS, marked with its call; OD600 change, %; measured here: OD600 growth;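 optical density of the mix in the first replicate; 0 = DMSO median and -100 = no signal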
rRNA inh HTS RFP – further read-out of rRNA inh HTS, marked with its call; RFP signal change, %; measured here: RFP humanized mutant strains;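 first replicate; 0 = DMSO median and -100 = no signal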
Starred values were filed as active, the others as inactive; i = inactive; . = not tested or not shown; ! = repeats disagree.

cpd	Molecule	E coli growth	AF4-AF9 inh	rRNA inh HTS	rRNA inh HTS OD600	rRNA inh HTS RFP	UCH37 DUB inh	T cruzi inh	FGF22 binding	A1 inh	Beta cell apopt
1	COc1cc(OC)cc(-c2nc3nc(C)c(CCC(=O)NCC(OC)OC)c(C)n3n2)c1	0.692	-1.1	11.5	1.6	13.8	-1.2	-17.7	i	0.0	7.0
2	CCOC(=O)Nc1ccc(Oc2ccccc2)cc1	0.645	.	.	.	.	3.9	-17.5	.	-0.7	4.3
3	COc1ccc(Nc2nc3c(C)cccn3c(=O)c2C=NCc2ccccc2)cc1	0.718	6.7	14.9	2.8	-1.5	4.4	50.3	i	0.3	6.0
4	CC(=O)c1ccc(OCc2cc([N+](=O)[O-])cc3c2OCOC3)cc1	0.731	-0.4	7.1	15.0	-1.1	3.5	21.3	i	-0.2	0.8
5	O=C1CCC(=O)N1CNc1ccc(Oc2ccccc2)cc1	0.694	6.9	-13.3*	9.1*	2.4*	3.0	-11.5	i	-0.7	-3.5
6	Cc1ccc(S(=O)(=O)NCc2ccccn2)c(C)c1	0.67	-5.5	5.0	13.0	-2.2	5.2	-2.2	i	0.0	.
7	O=C(COc1ccc2ccccc2c1)Nc1nnc(-c2ccco2)s1	0.662	.	.	.	.	-2.5	0.9	.	0.2	1.2
8	Fc1ccccc1-c1nc(NC2CCCC2)c2ccccc2n1	0.665	-2.2	-55.2	-79.9	-27.2	4.5	29.1	i	-0.8	9.7
9	CC(C)Nc1nnc(SC(C)C(=O)Nc2ccc(Cl)cn2)s1 (centres undefined)	0.711	-1.5	17.4	19.1	3.9	0.6	-5.5	i	-2.1	0.0
10	CCOC(=O)c1ccc(NC(=O)c2nccnc2C(=O)O)cc1	0.669	-6.6	6.8	10.2	-0.8	4.7	-16.6	i	0.3	-0.4
11	CC1COc2ccccc2N1S(=O)(=O)c1ccc(Cl)cc1 (centres undefined)	0.653	-5.4	-36.0	-57.4	-3.9	0.9	2.1	i	1.2	-9.1
12	C=CCOc1ccc(CN(C)C(=O)c2ccc(CNS(=O)(=O)c3ccc(C)c(C)c3)cc2)cc1	0.719	-2.3	.	.	.	4.8	.	i	-0.1	18.9
13	Cc1nnc(SCC(=O)Nc2c(Cl)cccc2Cl)n(N)c1=O	0.672	-5.4	-0.2	3.1	-2.2	2.6	-7.8	i	0.7	-8.1
14	CN(C)C(CNC(=O)c1ccc(Cl)c(S(=O)(=O)N2CCCCCC2)c1)c1ccccc1 (centres undefined)	0.718	4.8	-7.5	-11.7	4.8	3.2	.	i	0.0	30.2
15	COc1cc(OC)cc(-c2cc3nc(C)c(CCC(=O)Nc4nc(C)cs4)c(C)n3n2)c1	0.767	3.8	4.2	9.3	-3.2	-29.8	21.8	i	0.0	11.6
16	Cc1cc(C(=O)COC(=O)[C@H](C)NC(=O)c2ccco2)c(C)n1Cc1ccco1	0.661	3.0	-21.5	-30.6	3.4	-0.5	-2.8	i	0.3	2.5
17	CCCCCNC(=O)CCc1ccccc1	0.686	.	.	.	.	3.4	-5.6	.	1.2	-2.5
18	COc1ccc(NC(=O)Nc2ccc3c(c2)OCO3)c(C)c1	0.695	-0.1	7.7	-3.3	0.7	0.7	21.1	i	0.9	-0.8
19	O=C(NC(N1CCOCC1)C(Cl)(Cl)Cl)c1ccccc1Cl (centres undefined)	0.692	-0.7	12.6	11.4	-1.0	5.6	-10.2	i	0.1	2.7
20	O=C(O)c1c2c(nc3ccccc13)/C(=C/c1c(F)cccc1F)CCC2	0.662	-0.8	-32.5	-30.4	-1.8	-4.6	1.1	i	-0.6	-8.9
21	CC(C)(C)NC(=O)CSc1ncnc2c1cnn2-c1ccccc1	0.661	-3.3	-0.4	0.8	-1.2	-0.8	1.6	i	0.2	2.0
22	CCN(CC)CCCNc1nc2ccccc2[nH]1	0.736	0.8	9.8	18.7	-0.5	-3.1	-14.9	i	0.1	-7.0
23	CC(=O)c1c(C)[nH]c(C(=O)OCc2nnc(-c3ccccc3)o2)c1C	0.743	.	.	.	.	2.6	17.4	.	-0.1	7.1
24	O=C(CSc1nnnn1-c1ccc2c(c1)OCCO2)c1cccc2c1OCCO2	0.688	.	.	.	.	4.7	8.3	.	0.2	-3.8
25	Cc1ccccc1-n1nnnc1SC(C)C(=O)Nc1ccc(N2CCN(C)CC2)cc1 (centres undefined)	0.707	9.3	15.3	-1.3	2.3	-0.9	5.8	i	-0.1	-3.2
26	COC(=O)CSc1nnc(CNC(=O)c2ccco2)n1-c1ccc(F)cc1	0.677	3.1	7.5	6.2	-10.9	1.3	-4.3	i	0.8	3.5
27	NS(=O)(=O)c1ccc(CCNC(=O)c2ccc(Cn3c(=O)[nH]c4ccccc4c3=O)cc2)cc1	0.717	1.2	0.8	9.0	2.1	2.1	-8.6	i	-0.6	-3.0
28	CCN(CC)S(=O)(=O)c1cc(NC(=O)C2CSC3(C)CCC(=O)N23)ccc1C (centres undefined)	0.712	1.6	2.6	3.2	1.3	6.0	.	i	0.7	0.2
29	Cc1ccc(S(=O)(=O)N2CCCCC2)cc1C(=O)Nc1ccc(S(=O)(=O)Nc2ncccn2)cc1	0.669	1.1	4.5	-4.3	1.6	3.9	1.2	i	-0.1	-3.5
30	O=C(NNC(=O)c1ccc(F)c(S(=O)(=O)N2CCOCC2)c1)c1ccc([N+](=O)[O-])cc1	0.697	0.0	.	.	.	6.7	.	i	-0.5	0.2
31	Clc1ccccc1-c1ncc2ccccn12	0.652	0.2	5.3	0.3	3.2	-51.6	57.1*	i	-0.6	-1.2
32	Cc1ccc(CNC(=O)c2cn(C)c3ccc(S(=O)(=O)N4CCOCC4)cc3c2=O)cc1	0.661	-19.5	2.5	5.5	-0.3	7.9	9.0	i	-0.5	0.8
33	CCOc1ccc(S(=O)(=O)NCCCn2ccnc2)cc1	0.668	-2.2	10.9	4.2	3.4	0.5	-3.4	i	0.7	-3.4
34	CCn1nnnc1SCC(=O)Nc1ccc(OC)cc1	0.756	.	.	.	.	-1.6	-10.7	.	-0.8	-3.0
35	NC(=O)Cn1c(=O)n(CCCC(=O)NC2CCN(Cc3ccccc3)CC2)c(=O)c2ccccc21	0.671	.	.	.	.	4.9	-9.6	.	0.2	.
36	Cc1noc(C)c1NC(=O)Nc1cccc2c1O[C@@H](CN(C)C(=O)Nc1ccc3c(c1)OCO3)[C@@H](C)CN([C@H](C)CO)C2=O	0.792	1.1	-28.2*!	-13.6*!	2.2*!	-0.4	.	i	1.0	2.8
37	Cc1ccc(OC2CCN(C(=O)C3CCC(=O)N(C4CC4)C3)CC2)cc1 (centres undefined)	0.723	0.1	9.5	-1.4	2.8	3.1	-13.6	i	-0.1	12.8
38	COc1ccc(C=O)cc1COc1ccc(Cl)cc1[N+](=O)[O-]	0.692	.	.	.	.	2.7	-23.4	.	0.6	-0.4
39	C=CCn1c(=NC(=O)c2cccs2)sc2cccc(OC)c21	0.67	-18.2	1.4	-6.6	8.5	-105.4	34.6	i	0.4	-1.4
40	COc1ccc(C)c(NC(=O)NCCc2cnc[nH]2)c1	0.669	-4.1	0.1	6.3	-0.4	1.3	7.7	i	0.4	-2.7
41	O=C(NCC1CCN(Cc2cccc(Cl)c2)CC1)C1CCCN(c2ncnc3c2nc2n3CCCCC2)C1 (centres undefined)	0.672	5.4	-18.3	-13.2	2.4	1.0	28.8	i	-0.9	-7.0
42	O=c1nc(N2CCCC2)nc(Nc2ccccc2)[nH]1	0.734	.	-5.1	-1.0	12.4	1.7	-5.9	.	0.4	-1.4
43	CCOC(=O)C1=C(C)NC2=C(C(=O)C(C(=O)OCC)C(c3ccccc3OC)C2)C1c1ccccn1 (centres undefined)	0.774	.	.	.	.	-143.6	-1.8	.	0.0	1.6
44	O=C(NCc1ccc(F)cc1)c1cccc2c1C(=O)c1ccc(N3CCC(Cc4ccccc4)CC3)cc1S2(=O)=O	0.719	-0.8	8.3	8.1	5.9	1.0	.	i	-0.7	-6.9
45	COc1ccc(CCNC(=O)COC(=O)/C=C/c2cc(OC)c(OC)c(OC)c2)cc1OC	0.711	1.8	-14.0	-16.4	-3.5	-5.8	6.9	i	0.4	-5.3
46	Cc1ccccc1OCC(=O)NNC(=O)C1CCCCC1C(=O)O (centres undefined)	0.691	.	.	.	.	3.3	-1.1	.	0.7	-6.4
47	CCC(c1ccccc1)c1nnc(NC(=O)c2ccco2)s1 (centres undefined)	0.714	-2.0	6.6	0.7	0.7	4.4	-3.1	i	0.0	-6.9
48	Cc1ccc(NC(=O)CCC(=O)NNC(=O)NC2CCCCC2)c(C)c1	0.633	-1.0	21.9	20.4	1.0	-1.0	1.6	i	-0.2	-0.5
49	Cc1ccc2cccc(OCC(=O)NCCC3=CCCCC3)c2n1	0.684	.	.	.	.	6.4	.	.	-0.2	4.4
50	CN(Cc1cn(C)nc1-c1ccccc1F)C1CCOC1 (centres undefined)	0.688	-0.5	16.1	-0.1	2.1	0.2	-12.6	.	1.1	1.4

Remaining list, next part.
cpd	Molecule	E coli growth	AF4-AF9 inh	rRNA inh HTS	rRNA inh HTS OD600	rRNA inh HTS RFP	UCH37 DUB inh	T cruzi inh	FGF22 binding	A1 inh	Beta cell apopt
51	CCC(=O)Nn1cnc2c(c1=O)C1(CCCCC1)Cc1ccccc1-2	0.699	.	.	.	.	4.9	2.2	.	-0.3	-4.0
52	COc1ccc(CCNC(=O)c2cccc(S(=O)(=O)N3CCCC3)c2)cc1OC	0.705	-1.9	-4.3	9.5	-1.9	1.4	.	i	1.6	2.9
53	Cc1ccc(CSc2nnc([C@@H]3CCCN3C(=O)OC(C)(C)C)o2)cc1	0.664	5.1	-15.6*	5.4*	-1.3*	1.4	18.4	i	-0.6	-6.6
54	CCCOc1ccc(C(=O)Nc2cc(S(=O)(=O)N3CCOCC3)ccc2N2CCOCC2)cc1	0.671	3.5	4.2	5.7	-1.5	2.7	.	i	-0.3	6.8
55	O=C(COC(=O)c1ccc([N+](=O)[O-])s1)Nc1cccc(S(=O)(=O)NC2=NCCCCC2)c1	0.668	-27.0	1.9	5.2	3.0	62.2*	16.8	i	-0.2	-12.7
56	O=[N+]([O-])c1ccc(NC(=S)NCCc2ccccc2)cc1	0.593	3.7	-43.2	-74.4	-10.9	2.4	21.1	i	1.0	7.6
57	COc1ccc2c(c1)c(/C=N/Nc1ccc(C(=O)O)cc1)c(C)n2C	.	11.8	0.8	-0.8	-6.1	.	10.1	i	0.5	-2.2
58	COc1cccc(NC(=O)CSc2ccc3nnc(-c4ccccn4)n3n2)c1	0.719	-0.6	1.9	21.9	0.8	2.5	4.2	i	1.6	-4.5

The list is partial, so the mix of outcomes need not match the whole.
